NPR1 antag: Natriuretic polypeptide receptor (hNpr1) antagonism - Primary qHTS; Atrial natriuretic peptide receptor 1 (Homo sapiens), P16066; 1.6% of 76,000 active; HEK293 hNpr1 GloSensor cGMP, ANP-stimulated luminescence; AID 1347048, 2019; Potency, µM (doses to about 46.3 µM), for the others: at the top dose activity change, negative = inhibition, hits mostly inhibitors; active = well fitted inhibition curve with a large enough effect; inconclusive = small, poorly fitted or top-dose-only effect; inactive = no such curve, though single readings can be large or run the other way;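 further: nearly all actives have a fitted effect of over 60% in size; nearly all hits also lower the signal before the agonist is added; a reference antagonist and vehicle were the controls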
Target sequence (P16066 whole entry, looked up): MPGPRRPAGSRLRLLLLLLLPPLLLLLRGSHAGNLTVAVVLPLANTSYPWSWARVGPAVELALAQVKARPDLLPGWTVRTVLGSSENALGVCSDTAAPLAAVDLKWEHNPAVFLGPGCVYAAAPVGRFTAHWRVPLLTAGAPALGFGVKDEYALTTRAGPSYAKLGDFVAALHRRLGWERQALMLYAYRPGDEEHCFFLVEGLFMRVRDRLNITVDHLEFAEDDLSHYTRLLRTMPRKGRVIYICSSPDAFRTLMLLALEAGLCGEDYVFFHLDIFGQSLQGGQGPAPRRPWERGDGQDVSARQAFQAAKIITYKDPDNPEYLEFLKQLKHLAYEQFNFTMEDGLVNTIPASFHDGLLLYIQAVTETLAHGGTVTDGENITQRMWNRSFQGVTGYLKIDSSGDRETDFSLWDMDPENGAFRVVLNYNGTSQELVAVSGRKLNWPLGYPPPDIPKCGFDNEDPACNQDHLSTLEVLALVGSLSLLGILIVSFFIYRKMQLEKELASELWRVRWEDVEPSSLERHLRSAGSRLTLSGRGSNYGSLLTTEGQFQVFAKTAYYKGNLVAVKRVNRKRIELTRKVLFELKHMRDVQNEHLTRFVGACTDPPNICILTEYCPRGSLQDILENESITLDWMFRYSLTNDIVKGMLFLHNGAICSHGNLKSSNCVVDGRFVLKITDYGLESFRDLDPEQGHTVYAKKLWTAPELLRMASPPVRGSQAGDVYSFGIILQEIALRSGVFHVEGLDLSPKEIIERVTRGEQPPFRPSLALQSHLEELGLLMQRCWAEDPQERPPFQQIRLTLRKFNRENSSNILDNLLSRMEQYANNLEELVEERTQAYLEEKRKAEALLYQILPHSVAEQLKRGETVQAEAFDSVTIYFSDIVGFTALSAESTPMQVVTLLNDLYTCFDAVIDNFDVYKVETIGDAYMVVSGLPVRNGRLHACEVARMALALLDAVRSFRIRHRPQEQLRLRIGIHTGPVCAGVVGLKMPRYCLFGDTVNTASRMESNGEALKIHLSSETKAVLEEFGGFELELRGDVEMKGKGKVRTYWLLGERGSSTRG
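HEK293 cells stably expressing human Npr1 and cGMP GloSensor pGS-40F, loaded 2 h with 2% GloSensor reagent, given compound 30 min at room temperature. Luminescence read before and 20 min after 0.1 nM hNppA.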
Numbers without * were called inactive; u = inconclusive; & = joins results of further samples; [ ] = dose if it differs, or a comment. On the % scale 0 is the no-effect control and ±100 the full control effect; potency means the concentration at half of the fitted maximal effect. A portion of the library, so the mix of outcomes need not match the whole.

#	canonical_smiles	NPR1 antag
1	O=C(NC1C[C@H]2CC[C@@H](C1)N2C(=O)COc1ccccc1)c1ccncc1 (some centres undefined)	1%
2	O=C(c1cccc(OC2CN(C3CCN(Cc4ccccc4)CC3)C2)c1)N1CCOCC1	2%
3	O=C(Cc1cccc(F)c1)NCC1COc2ncncc2C(=O)N1Cc1ccccc1 (centres undefined)	-18%[70.6 µM]
4	COCC1(CNc2cc(C3CC(O)C3)nc(C)n2)CCCC1 (centres undefined)	2%
5	COCCN1CCNc2nc(COc3cccc(C#N)c3)n(Cc3ccccc3)c2C1=O	-18%[70.6 µM]
6	COc1ccccc1OCc1nc2c(n1Cc1ccccc1)C(=O)N(Cc1ccccc1F)CCN2	3%
7	O=C(Nc1ccc(-c2nnc3n2CCCC3)cc1)c1ccccn1	-1%
8	COc1ccc2nc(C[C@@H]3C[C@@H](C(C)C)[C@H](CNC4CCCCC4)C=C3C)[nH]c2c1	-12%[70.6 µM]
9	Cc1cc(C)cc(OCC(=O)c2ccc3c(c2)N(CC(=O)NCc2ccccc2)C(=O)CO3)c1	8%
10	COc1ccc(C2(C(=O)N3CCCCCCNC(=O)[C@@H]4CCCC[C@@H]43)CC2)cc1	0%
11	CCOc1ccc(C2NC(=O)N(Cc3noc(C4CCCCC4)n3)C3=C2C(=O)OC3)cc1 (centres undefined)	-26%
12	CCOC(=O)C1=C(C)N=C2SC=C(CC(=O)N3CCOCC3)N2C1c1cccc(Cl)c1 (centres undefined)	-24%
13	Cc1ccc(NC(=O)Cn2c(C)cc3nc4n(c(=O)c32)CCCC4)cc1	2%
14	CCOC(=O)C1=CN(CC(=O)NC(C)c2ccccc2)S(=O)(=O)N=C1C (centres undefined)	-3%
15	O=C(Nc1ccccc1)Nc1ccc([C@@H](O)[C@H]2COCC(=O)N2CC2CC2)cc1	-17%[70.6 µM]
16	CCOc1cccc(CN2C[C@@H](COC)[C@H](C(=O)N(C)C)C2)c1	2%
17	CN(CC1CCOC1)C(=O)c1ccc(Cl)s1 (centres undefined)	1%
18	COc1ccccc1CNC(=O)c1noc(-c2ccc3c(c2)OCO3)n1	0%
19	COc1ccc(-c2noc(CC3CCN(C(=O)Cc4ccc(OC)c(Cl)c4)CC3)n2)cc1	13µM*
20	O=C(NC[C@H]1OC[C@@H](NC2CCC(F)(F)CC2)[C@@H]1O)c1ccncc1	-2%[70.6 µM]
21	c1cc(N2CCOCC2)ncc1-c1noc([C@@H]2CCCN2C2CCOCC2)n1	4%[70.6 µM]
22	COc1cc(=O)n2c(c1C(=O)Nc1cc(F)ccc1Cl)CCCC2	3%
23	O=C(NC1CCCN(c2cc(-c3ccc(F)cc3)[nH]n2)C1)c1ccc(Br)cc1 (centres undefined)	-9%
24	CNC(=O)c1cccc(-c2cnc3[nH]cc(CC(=O)N(C)C)c3c2)c1	5%[70.6 µM]
25	O=C(c1ccc(OC2CCN(C(=O)c3cccc(Cl)c3)CC2)nc1)N1CCOCC1	-1%
26	Cc1nnc(CCNC(=O)[C@H]2CNC[C@@H](C(=O)N3CCCC3)C2)s1	-2%
27	COc1ccc(-c2noc([C@@H]3CCCN3C(=O)Cc3ccccc3Cl)n2)cc1	-2%
28	Cc1ccc2oc(C(=O)N(C)CCc3ccccc3)c(C)c2c1	-23%
29	CCNCc1ccc(-c2ccccc2)o1	3%
30	CCOC(=O)CCNC(=O)N1C[C@@H](Oc2cccnc2)C[C@H]1C(=O)N1CCCC1	-3%
31	CN(C)CC(O)c1cc2n(n1)CCCN(C(=O)c1cccn1C1CC1)C2 (centres undefined)	-2%
32	CCCn1ccc2oc(C)c(C(=O)NCc3ccc(OC)cc3)c2c1=O	-1%
33	CCCCn1c(CN2CCCC(C(=O)c3nccn3C)C2)cnc1S(=O)(=O)CC (centres undefined)	1%
34	Cc1ccc2[nH]c(=O)c(CN3CCCN(c4ccncc4)CC3)cc2c1	3%
35	CC(C)CC(=O)N1CC2CC(C1)[C@H]1CCCC(=O)N1C2 (some centres undefined)	0%
36	Cc1cccc(OCCc2noc(C3CN(C(=O)c4cccnc4C)C3)n2)c1	1%
37	O=C(Cc1ccccc1Br)N1CCCN(c2cc(-c3ccc(F)cc3)[nH]n2)CC1	-21%
38	COc1ccccc1CNC(=O)C1Cn2cccc2C(=O)N1CC(C)C (centres undefined)	3%
39	COc1ccc(C[C@H](NC(=O)[C@@]2(O)C[C@@H](O)[C@H](O)[C@@H](NC(=O)Nc3ccc(C)cc3)C2)C(N)=O)cc1	-4%
40	CN1CCOc2c(C(=O)NCc3cccnc3)cc(-c3ccccc3O)cc21	2%[70.6 µM]
41	CCn1cnnc1-c1nn(C)c2c1CN(C(=O)CCC1CCCC1)CC2	-3%
42	CCCS(=O)(=O)N1CCC(CCOC)(NC(=O)C2CC2)CC1	-2%
43	O=C(C1CCCN(c2cnn(Cc3ccccc3)c(=O)c2)C1)N1CCN(C2CCCCC2)CC1 (centres undefined)	-8%
44	CC(C)COc1cc(=O)n2c(c1C(=O)N(C)CCc1ccccn1)CCCCC2	4%
45	NC1CC(c2nnc(COc3ccc4c(c3)CCNCC4)n2C2CC2)C1 (centres undefined)	1%&1%
46	COCC(=O)N(C1CCOCC1)C1CCN(C(=O)c2ccc(F)cc2F)CC1	-1%
47	Cc1ncsc1CN1CCC2(CC1)CC(CC(=O)NCc1ccncc1)CCO2 (centres undefined)	5%
48	CC1(C)[C@H](Cc2cc(CN3CCN(c4ccccc4)CC3)on2)C[C@@H]1NC(=O)Nc1ccc(F)cc1	13µM*
49	O=C(Cn1nc(-c2ccc(F)cc2)ccc1=O)NC1CCCc2c1[nH]c1ccccc21 (centres undefined)	3%
50	O=C(N[C@H]1C[C@@H]2OCC[C@H]12)c1ccccc1-c1nc(-c2ccccc2)no1	-11%
51	COc1ccc(-c2cc(N3CCCN(C(=O)c4ccc(N(C)C)cc4)CC3)n[nH]2)cc1	-5%
52	Cc1cccc(NC(=O)N2CCCC(c3nnnn3C)C2)c1 (centres undefined)	5%
53	Cc1ccc(CNS(=O)(=O)c2ccc3c(c2)CN(C(=O)c2cccnc2)CC3)o1	-4%
54	CC(C)C(=O)NC1CCN(c2cnn(Cc3ccccc3)c(=O)c2)CC1	0%
55	Cc1ccc(C(=O)NC2CCCN(c3cc(-c4ccccc4)[nH]n3)C2)s1 (centres undefined)	-11%
56	Cc1ccc(S(=O)(=O)N2CCCC(Cn3cnc4cccnc43)C2)cc1 (centres undefined)	0%

Next part.
#	canonical_smiles	NPR1 antag
57	COc1ccc(C(=O)N[C@@H]2C[C@H](COc3cccc(C)n3)[C@@H](O)[C@H]2O)cc1	0%[70.6 µM]
58	Cc1noc(C)c1S(=O)(=O)N(C)Cc1ccc(F)cc1	7%[70.6 µM]
59	Cc1cccc(C(=O)N2C[C@@H]3CCCN4CCC[C@@H]([C@H]34)[C@H]2CCCC(=O)NCC2CC2)c1	1%
60	CN(C)C[C@@H]1CN(S(C)(=O)=O)C[C@H]1NC(=O)Cc1cccc(F)c1	4%
61	Cc1c(CO)cccc1NC(=O)c1ccc(CN2CCCC(C)C2)cc1 (centres undefined)	0%
62	COc1ccc(-c2[nH]nc3ncc(-c4ccc(CO)cc4)nc23)cc1F	0%[70.6 µM]
63	CC(=O)N1CCC(c2nn(-c3ccc(F)cc3)c(=O)[nH]2)CC1	23%[70.6 µM]
64	COc1ccccc1N1CCN(Cc2ccc(=O)n(C)c2)CC1	-3%
65	O=C1N(CCc2ccccc2)c2ccccc2C12CCN([S+](=O)([O-])c1cccs1)C2 (centres undefined)	4%&-11%
66	Cc1ccc(CN2C[C@H]3CN(Cc4ccc(C(=O)O)cc4)CCN3C2=O)cc1	-5%[70.6 µM]
67	O[C@@H]1CCN(Cc2nc(C3(O)CCN(C4CCCC4)CC3)cs2)C1	3%[70.6 µM]
68	CNC(=O)[C@@H]1C[C@H](Oc2cccnc2)CN1C(=O)CCc1c[nH]c2ccccc12	-5%
69	CC1=C[C@@H](CNC(=O)C(C)C)[C@H](C(C)C)C[C@H]1Cc1nc2ncccc2[nH]1	-5%[70.6 µM]
70	CCc1noc(-c2nnn3c2COC(c2ccc(OC)cc2)C3)n1 (centres undefined)	-13%
71	CCn1cc(C(=O)N2C[C@H](CO)C[C@H](CN3CCCC3)C2)c(C)n1	3%
72	CCCNC(=O)N1CCCC1c1nc(C2CCOCC2)no1 (centres undefined)	0%
73	COc1ccc(CCC(=O)N2CCCCCCNC(=O)CC2)cc1	5%
74	O=C(NCCc1ccncc1)C1CN(C(=O)C2CCCCC2)CC12CCOCC2 (centres undefined)	0%
75	CCOc1ccc(C(=O)N2C[C@@H](CO)[C@H](C(=O)NC)C2)cc1	-6%
76	COc1cccc(-c2cc(C3CCN(S(=O)(=O)c4ccc(F)cc4F)CC3)[nH]n2)c1	u
77	C[C@@H](c1ccccc1)N1C(=O)[C@@H]2CN(C(=O)c3ccc(N(C)C)cc3)CCN2C1=O	3%[70.6 µM]
78	CCN1CC(C(=O)N2CCN(CCOc3ccccc3)CC2)CC1=O (centres undefined)	-3%
79	O=C(NCc1ccc(F)cc1)N1CCCC(Cn2cnc3cccnc32)C1 (centres undefined)	3%
80	Cc1cnc(C2CC2)n1C1CCN(C(=O)c2ccoc2)CC1	1%

A different layout for 5 compounds above:
| no. | NPR1 antag | compound |
| --- | --- | --- |
| 75 | -6% | CCOc1ccc(C(=O)N2C[C@@H](CO)[C@H](C(=O)NC)C2)cc1 |
| 78 | -3% | CCN1CC(C(=O)N2CCN(CCOc3ccccc3)CC2)CC1=O (centres undefined) |
| 76 | u | COc1cccc(-c2cc(C3CCN(S(=O)(=O)c4ccc(F)cc4F)CC3)[nH]n2)c1 |
| 79 | 3% | O=C(NCc1ccc(F)cc1)N1CCCC(Cn2cnc3cccnc32)C1 (centres undefined) |
| 77 | 3%[70.6 µM] | C[C@@H](c1ccccc1)N1C(=O)[C@@H]2CN(C(=O)c3ccc(N(C)C)cc3)CCN2C1=O |

The list continues.
#	canonical_smiles	NPR1 antag
81	COc1ccc2nc(C[C@@H]3C[C@@H](C(C)C)[C@H](CNC(=O)CC4(CC(=O)O)CCCC4)C=C3C)[nH]c2c1	-1%
82	Cc1cnc(CC2CCNC2)n1C(C)C (centres undefined)	-4%
83	Fc1cc(Nc2ncc(-c3ccccc3)c3c2OCC3)cc(N2CCOCC2)c1	1%[70.6 µM]
84	O=C(c1ccccc1C1CCNC1)N1CCC(Nc2ncccn2)CC1 (centres undefined)	0%
85	CCOC(=O)c1cccc(NC(=O)N2CC[C@@H](CC(=O)NCc3ccccc3)[C@@H](CC)C2)c1	-3%
86	CN1[C@@H](CCC(=O)NCc2ccc(F)cc2)CNC(=O)[C@@H]2[C@H]1CCN2Cc1ccc(S(C)(=O)=O)cc1	1%
87	O=C1CCC2(CNC(=O)C3CCC3)CCCC=C2N1 (centres undefined)	2%
88	O=C1NCC2(CCN(C(=O)c3ccccc3C3CCNC3)CC2)O1 (centres undefined)	1%

Some of these compounds in order of their number in NPR1 antag, largest number first:
#	canonical_smiles	NPR1 antag
34	Cc1ccc2[nH]c(=O)c(CN3CCCN(c4ccncc4)CC3)cc2c1	3%
84	O=C(c1ccccc1C1CCNC1)N1CCC(Nc2ncccn2)CC1 (centres undefined)	0%
53	Cc1ccc(CNS(=O)(=O)c2ccc3c(c2)CN(C(=O)c2cccnc2)CC3)o1	-4%

(continued)
#	canonical_smiles	NPR1 antag
89	CC1=C[C@@H](CNC(=O)COc2ccccc2)[C@H](C(C)C)C[C@H]1CC(=O)NCc1cccnc1	-22%
90	Cc1ccc(CNC(=O)c2ccc3c(c2)N(C(=O)c2ccc(F)cc2)CC3)o1	-29%
91	COc1ccc(C2(C(=O)N3C[C@@H](Oc4cccnc4)C[C@H]3C(=O)NC3CC3)CC2)cc1	-1%
92	Cc1cc(NC(=O)N2CCC(n3cnnc3C3CC3)C2)ccc1Br (centres undefined)	-8%
93	Cc1nc(C(C)C)cc(N2CCC(Oc3cccc(F)c3)(C(=O)O)CC2)n1	5%
94	CNC(=O)c1cc2cc(-c3c(C)noc3C)nc(-c3ccccc3C)c2o1	0%[70.6 µM]
95	O=C(NCc1ccc2c(c1)OCO2)C1Cn2cccc2C(=O)N1Cc1ccccc1 (centres undefined)	1%
96	Cc1cn2c(=O)cc(CN3CC(=O)N(C)c4ccccc4C3=O)nc2s1	0%
97	COCCNC(=O)C(NC(=O)CC(C)C)C1CCN(C(=O)c2ccccc2C)CC1 (centres undefined)	1%
98	O=C(c1cccc(Cl)c1)N1CCC2(CC1)N=C(c1cccc(Br)c1)NO2	-16%
99	O=C(Nc1cccc(F)c1)N1CCOc2ccc(CN3CCc4ccccc4C3)cc2C1	-23%
100	CCn1ccc(C(=O)N2CCCC(c3nn(C)c(=O)n3-c3ccccc3)C2)n1 (centres undefined)	2%
101	CN1C(=O)CS(=O)(=O)C12CCN(C(=O)c1cc(F)ccc1Cl)CC2	-12%
102	CC(=O)N1CCOc2ccc(CCC(=O)NCCN3CCCCC3C)cc2C1 (centres undefined)	1%
103	O=C1Nc2cc(Cl)ccc2C(=O)N2CC[C@H](NS(=O)(=O)c3cccs3)[C@@H]12	-1%[70.6 µM]
104	COC(=O)[C@H](Cc1ccc(OC)cc1)NC(=O)[C@@H]1CN(C(=O)NC(C)C)CCN1S(C)(=O)=O	-2%
105	Cc1cc(C)n(CC(=O)N[C@@H]2CN(c3ncccn3)C[C@H]2CN(C)C)n1	1%
106	COCCOc1cc(C)c2c(c1C)C[C@H](C(C)C(=O)NCc1cccs1)CC2 (some centres undefined)	-13%[70.6 µM]
107	COc1cc(=O)n2c(c1C(=O)Nc1ccccc1Cl)CCCC2	-8%
108	CC(=O)Nc1ccc([C@H]2OCC(=O)N(Cc3ccccc3)[C@@H]2CO)cc1	-2%[70.6 µM]

Assay outcomes: PubChem BioAssay, National Center for Advancing Translational Sciences (NCATS)
